PINK1 modulator: PINK1 expression modulation | PINK1 immunofluorescence, high-content cytometry, 24 h | Potency, µM (doses to about 76.6 µM), inactives show at the highest dose activation (PINK1 increase), hits mostly activators | hit rate 0.2% among 410,000; active = well fitted activation curve with a large enough effect; inconclusive = small, poorly fitted or top-dose-only effect; inactive = flat fitted curve, though single readings scatter; cell line not stated here;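 further: potency means the concentration at half of the fitted maximal effect; % of control where 0% means no effect; nearly all actives have a fitted effect of over 65% in size; a mitochondrial uncoupler was the plate control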
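Cells are seeded, rested 12 hours, then given compound at five concentrations or DMSO for 24 hours. After fixation, blocking and antibody staining, PINK1 amount and mitochondrial localization are scored; CCCP serves as control.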
TRPML1 inh: human mucolipin-1 channel inhibition. Q9GZU1. TRPML1-inducible cells, Ca2+ dye fluorescence, FDSS; hits give low values; inhibition of EC80 agonist-evoked calcium signal. activity change, negative = inhibition, % (concentration not given with the values). hit rate 0.02% among 390,000. AID 624415; in the data active means activity change below about -50%; inconclusive means about -30% to -50%; inactive means above about -30%;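 further: stimulus is agonist 54-4 at its EC80 concentration; on the % scale 0 is the no-effect control and ±100 the full control effect; compound concentration not given in the record; the text of the record puts the active cut at -80%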
Target sequence (Q9GZU1 whole entry, looked up): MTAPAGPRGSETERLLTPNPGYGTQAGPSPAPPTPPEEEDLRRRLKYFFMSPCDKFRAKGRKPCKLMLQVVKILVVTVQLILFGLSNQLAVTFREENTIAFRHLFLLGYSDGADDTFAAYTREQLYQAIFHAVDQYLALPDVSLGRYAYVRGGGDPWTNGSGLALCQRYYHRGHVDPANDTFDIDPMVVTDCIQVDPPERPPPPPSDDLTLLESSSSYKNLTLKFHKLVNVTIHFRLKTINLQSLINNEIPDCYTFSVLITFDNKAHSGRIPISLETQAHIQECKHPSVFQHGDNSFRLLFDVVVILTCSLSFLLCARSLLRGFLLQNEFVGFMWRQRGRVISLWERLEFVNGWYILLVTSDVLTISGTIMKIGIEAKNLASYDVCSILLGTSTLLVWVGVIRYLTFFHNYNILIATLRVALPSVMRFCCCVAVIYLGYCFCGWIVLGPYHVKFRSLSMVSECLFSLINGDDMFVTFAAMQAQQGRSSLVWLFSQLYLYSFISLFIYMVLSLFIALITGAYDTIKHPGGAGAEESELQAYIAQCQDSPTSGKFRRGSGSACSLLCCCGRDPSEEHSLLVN
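Calcium fluorescence in TRPML1-DL cells induced overnight with Tet: a 110 s read after compound pin addition, then a 110 s antagonist read after challenge with 54-4 at 4 uM final (EC80).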
D2 agonist: human D2 receptor agonism in beta-arrestin assay; P14416; hit rate 0.084% among 360,000; activation, % (concentration not given with the values); DiscoveRx PathHunter D2 beta-arrestin, luminescence, 90 min; 100% = 57 uM dopamine signal; in the data active = activation above about 40%; inconclusive = about 15% to 40%; inactive = below about 15%; further: compound concentration not given in the record; the text of the record calls up to 30% inactive
Target sequence (P14416 whole entry, looked up): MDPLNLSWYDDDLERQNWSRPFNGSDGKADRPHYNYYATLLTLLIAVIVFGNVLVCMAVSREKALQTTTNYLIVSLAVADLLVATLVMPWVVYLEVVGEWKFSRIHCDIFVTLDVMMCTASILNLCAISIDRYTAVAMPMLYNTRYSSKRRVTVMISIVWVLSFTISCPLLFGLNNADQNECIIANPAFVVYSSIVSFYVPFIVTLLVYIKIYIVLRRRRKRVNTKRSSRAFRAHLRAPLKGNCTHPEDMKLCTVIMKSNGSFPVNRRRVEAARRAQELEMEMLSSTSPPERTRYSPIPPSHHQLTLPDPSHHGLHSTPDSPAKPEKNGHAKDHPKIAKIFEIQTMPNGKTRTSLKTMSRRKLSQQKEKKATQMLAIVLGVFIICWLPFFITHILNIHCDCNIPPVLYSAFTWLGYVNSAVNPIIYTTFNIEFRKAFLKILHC
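Agonist mode: compounds alone added to overnight-plated D2 PathHunter cells for 90 min at 37 C, with 57 uM final dopamine (EC100) defining full response. Beta-arrestin recruitment detected by chemiluminescent reagent, read after 1 h at ambient temperature.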
Six1-Eya2 blk: Six1/Eya2 interaction inhibition; Q15475+O00167; AlphaScreen GST-Six1/His-Eya2 binding, biochemical; hits give low values; control for the full effect not named in the record; activity change, % (concentration not given with the values); hit rate 0.56% among 360,000; AID 651725; in the data active = activity change below about -65%; inconclusive = about -30% to -65%; inactive = above about -30%; further: on the % scale 0 is the no-effect control and ±100 the full control effect
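AlphaScreen luminescence read after one hour at 37 °C in darkness. Pin-transferred compounds met GST-Six1 and His-Eya2 protein (5X stock 250 nM/500 nM) plus glutathione donor and Ni-chelate acceptor beads (5X, 50 ug/mL).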
D2 PAM: potentiates the human D2 dopamine receptor allosterically; potentiation, % (test concentration not listed); P14416; DiscoveRx D2 beta-arrestin cells, luminescence, 90 min; 100% = 57 uM dopamine signal; hit rate 0.23% among 360,000; active = potentiation of 50% or more; inconclusive = 30% to 50%; inactive = 30% or less;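 further: compound concentration not given in the record; tested on top of an EC20 dose of dopamine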
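D2 cells co-treated with compound plus 50 nM dopamine (EC20) for 90 min at 37 deg C to detect potentiation. Beta-arrestin recruitment was read as enzyme-fragment luminescence after 1 h at ambient temperature. Full response was set by 57 uM dopamine.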
TRPML1 agonist: human mucolipin-1 channel agonism; Q9GZU1; hit rate 0.12% among 410,000; activation, % (concentration not given with the values); AID 624414; TRPML1-expressing cells, Ca2+ dye fluorescence, FDSS; host cell line not named in the record; reference of the full effect not given here; in the data active = activation above about 50%; inconclusive = about 30% to 50%; inactive = below about 30%; further: 0% is about no effect; the text of the record puts the active cut at 80%
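Kinetic FDSS Ca2+ read in Tet-induced TRPML1-DL cells (ABD Ca8 dye plus quencher, 45-90 min RT loading): baseline, then compound, then 110 s agonist window; EC80 agonist 54-4 at 4uM final added afterwards for a 110 s antagonist window.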
An asterisk follows results filed as active; ? = inconclusive; · = not tested or not shown; [ ] = remark or other dose.

SMILES	PINK1 modulator	TRPML1 inh	D2 agonist	Six1-Eya2 blk	D2 PAM	TRPML1 agonist
COc1cccc(CNCC(O)(c2ccc(Cl)cc2)c2ccc(Cl)cc2)c1	?	-0.2	-0.4	8.3	-18.5	0.8
C/C(=N\NC(=O)Cc1c(C)[nH][nH]c1=O)c1ccc(Cl)c(Cl)c1	-0.3%	-12.1	-0.6	8.7	-10.3	0.7
N=c1n(CCOc2ccccc2)c2ccccc2n1CCN1CCOCC1	-2.7%	14.9	-0.7	-0.3	-0.8	-0.5
O=C(O)CCC(=O)N1CCC(n2nnc3cc(C(F)(F)F)ccc32)CC1	3.4%	-8.8	-1.5	1.5	1.2	0.4
CC1(CCc2ccccc2)NC(=O)N(CC(=O)Nc2ccc(OC(F)F)cc2)C1=O (stereo unspecified)	1.3%	8.8	-2.5	1.4	-11.6	1.8
O=C(NNc1ccccc1)C(=O)NNS(=O)(=O)c1ccc([N+](=O)[O-])cc1	-0.3%	3.6	-5.3	8.0	-4.2	1.8
CC1CCN(c2c(NCc3ccc(C(=O)NCc4ccccc4)cc3)c(=O)c2=O)CC1	1.8%	3.2	-1.2	-24.4	-10.1	0.6
CC(C)(C)NC(=O)CSc1ccc(C(C)(C)C)cc1	10.2%[38.3 µM]	3.7	-0.1	9.3	-9.2	-0.4
O=c1c2c(nc3c(-c4cccc(Br)c4)c[nH]n13)CCCC2	-2.1%	0.1	-1.5	3.1	-13.0	2.5
CCCSc1oc(-c2ccco2)nc1S(=O)(=O)c1ccc(C)cc1	1.9%	-0.1	3.9	2.4	-9.0	0.8
CCc1ccc(NC(=O)N2c3ccccc3Sc3ccccc32)cc1	0.9%	-14.0	·	·	·	3.7
COc1ccccc1-c1cc2nc(C)c(CCC(=O)NCc3cccc(Cl)c3)c(C)n2n1	2.2%	2.5	·	·	·	3.9
CCCCN(CCCNC(=O)c1ccc(CS(=O)(=O)c2ccc(OC)cc2)o1)Cc1ccccc1	0.7%	-18.4	-5.3	-0.1	-27.2	-0.9
COCCCNC(=O)CNC(=S)N(Cc1ccc(F)cc1)C1CCCCC1	4.5%[38.3 µM]	2.3	-1.3	1.6	-16.1	3.1
CC(C)(C)C1CCc2onc(C(=O)Nc3ccc4c(c3)OCO4)c2C1 (stereo unspecified)	3.1%	13.3	-4.8	4.0	-9.9	-0.4
O=C(O)c1cnn2c(-c3ccccc3)ccnc12	1.5%	34.9	8.8	-4.6	-0.5	0.2
CC1(c2nnc(-c3ccc(F)cc3)o2)CC(c2ccc(F)cc2)=NO1 (stereo unspecified)	2.2%	3.9	-5.2	5.1	-19.5	1.7
O=C(Nc1cccc(S(=O)(=O)N2CCCC2)c1)[C@@H]1O[C@H](CO)[C@H](O)[C@H](O)[C@H]1O	2.4%	·	-8.2	13.2	-1.6	0.0
COc1ccc(C(=O)/C=C/Nc2ccccn2)c(OC)c1	-3.0%	4.8	-5.4	2.8	-11.4	-0.4
Cn1nc(-c2ccccc2)c(C(O)c2ccccc2C(F)(F)F)c1Cl (stereo unspecified)	13.7%[38.3 µM]	2.7	-2.6	8.4	-4.9	-0.6
O=C(Cn1c(=O)c2cccn2c2ccc(F)cc21)NCCCN1CCN(c2ccccc2F)CC1	-0.2%	-5.7	?	-1.1	-33.8	-0.9
CC(Sc1nc(=O)cc(N)n1CCc1ccccc1)C(=O)Nc1cccc(Cl)c1 (stereo unspecified)	-0.3%	-1.4	·	·	·	1.7
COc1ccc(NC(=O)Cn2c(=O)n(-c3ccc(OC)cc3)c(=O)c3sc4ccccc4c32)cc1	2.2%	6.2	·	·	·	-0.2
c1cc(C(c2nnnn2C2CCCC2)N2CCOCC2)ccn1 (stereo unspecified)	-0.6%[38.3 µM]	-0.2	0.7	2.9	-0.9	0.0
CC(Oc1ccc(F)cc1Br)c1nc2ccccc2c(=O)[nH]1 (stereo unspecified)	2.8%	-13.5	-3.3	-4.1	-4.4	2.6

Of the compounds above, 2 have a furan ring, fused or not:
SMILES	PINK1 modulator	TRPML1 inh	D2 agonist	Six1-Eya2 blk	D2 PAM	TRPML1 agonist
CCCSc1oc(-c2ccco2)nc1S(=O)(=O)c1ccc(C)cc1	1.9%	-0.1	3.9	2.4	-9.0	0.8
CCCCN(CCCNC(=O)c1ccc(CS(=O)(=O)c2ccc(OC)cc2)o1)Cc1ccccc1	0.7%	-18.4	-5.3	-0.1	-27.2	-0.9

As a short view, three of the compounds above.
SMILES	PINK1 modulator	TRPML1 inh	D2 agonist	Six1-Eya2 blk	D2 PAM	TRPML1 agonist
C/C(=N\NC(=O)Cc1c(C)[nH][nH]c1=O)c1ccc(Cl)c(Cl)c1	-0.3%	-12.1	-0.6	8.7	-10.3	0.7
N=c1n(CCOc2ccccc2)c2ccccc2n1CCN1CCOCC1	-2.7%	14.9	-0.7	-0.3	-0.8	-0.5
O=C(O)CCC(=O)N1CCC(n2nnc3cc(C(F)(F)F)ccc32)CC1	3.4%	-8.8	-1.5	1.5	1.2	0.4

Later entries
SMILES	PINK1 modulator	TRPML1 inh	D2 agonist	Six1-Eya2 blk	D2 PAM	TRPML1 agonist
COc1cc2[nH]c(=O)c(C(=O)NCc3ccc(F)cc3)c(O)c2cc1OC	-0.2%	20.5	-5.4	2.7	-7.5	0.3
CC(=O)c1cc2c(cc1NC(=O)CCCC(=O)O)OCO2	3.3%	15.1	-3.2	-0.5	7.6	0.7
CCN(Cc1ccccc1)C(c1cccc(C#N)c1)c1nnnn1C(C)(C)C (stereo unspecified)	4.0%[38.3 µM]	-1.0	-1.5	2.0	1.3	-0.2
COCCCNCCOCCOc1c(OC)cccc1OC	-0.8%	6.7	1.3	1.9	-42.3	-0.4
COc1cc2c(cc1OC)/C(=C/C(=O)c1ccccc1)NCC2	-2.9%	-13.3	1.3	-24.5	-9.8	2.3
O=C(CCN1C(=O)COc2ccccc21)N1CCN(c2ccccc2)CC1	0.9%	17.1	-6.0	2.7	2.9	-0.7
COc1ccc2ccc3c(c2c1)N=C[C@]1(O3)N(C)c2ccccc2C1(C)C	5.4%	0.2	?	-29.7	?	-0.7
COc1cccc(CN2CCC(N(CCc3ccccc3)Cc3ccccc3)CC2)c1OC	?	-15.3	0.0	-18.1	-27.4	-0.1
C=C1C2C[C@H](O)C(C)(C)[C@@]2(O)[C@H](O)C[C@]23C[C@@](C)(O)[C@H](CC[C@H]12)[C@H]3O (stereo partly specified)	0.3%	10.2	0.0	-0.1	-3.5	-0.3
CCn1c2ccccc2c2cc(CN3CCN(S(=O)(=O)Cc4ccccc4)CC3)ccc21	6.0%	6.5	1.4	3.4	-13.7	1.6
COc1cccc(NC(=O)c2c([N+](=O)[O-])cnn2C)c1	-1.1%	10.2	3.1	-0.2	-1.8	1.0
Cc1cn([C@H]2C[C@H](O)[C@@H](/C=C/C(=O)NCCN3CCOCC3)O2)c(=O)[nH]c1=O	1.9%	9.6	-4.6	8.3	-7.1	-0.4
CCn1cc(C(=O)NCC(=O)OC)c2cc(OC)c(OC)cc2c1=O	-3.8%	17.6	-1.4	0.4	8.9	3.3
Cc1ccc2nc(COc3cccc(NC(=O)COc4ccc(F)cc4)c3)cc(=O)n2c1	1.9%	-3.5	·	·	·	0.6
c1ccc(CNc2nc3ccccc3n3cnnc23)nc1	0.8%	2.1	-0.9	2.2	-2.0	-0.2
Cn1c(CN2CCCC2)nc2cc(NC(=O)COc3ccccc3)ccc21	-1.2%	3.0	0.2	3.5	-39.9	-0.5
COc1ccc(-c2nc3ccc(NS(=O)(=O)c4ccc(C)cc4)cc3o2)cc1	?	-22.5	·	·	·	1.8
CCN(C(=O)CSc1nnc(-c2ccc(OC)cc2)n1C(C)C)C1CCS(=O)(=O)C1 (stereo unspecified)	-0.8%	-6.7	-3.0	0.3	5.3	0.9
Cc1ccc(-n2nc3c(=O)n(C(C)C(=O)NCc4ccc5c(c4)OCO5)nc(C)c3c2C)cc1 (stereo unspecified)	-1.0%	7.3	4.4	-1.0	-9.0	1.8
COc1cc(S(=O)(=O)n2cnc(C)c2)ccc1Br	14.5%	12.0	-2.5	1.5	-6.3	0.6
O=C(Cc1ccccc1)Nc1ccc(NC(=O)c2cccnc2)cc1	0.9%	-3.4	5.8	4.7	-1.0	-0.2
CCN1C(=O)c2cccc3c(S(=O)(=O)Nc4ccccn4)ccc1c23	3.0%	-4.2	0.9	-0.3	11.9	1.8
CCOC(=O)CNC(=O)N1C[C@H]2CON(C)[C@H]2C[C@H]1c1ccccc1Br	2.2%	-9.1	-4.1	11.4	2.9	-0.1
CC1(C)CC(CC(=O)NC(=S)Nc2ccc([N+](=O)[O-])cc2)C(=O)O1 (stereo unspecified)	2.2%	5.3	-10.6	-2.7	-42.9	1.0
Cc1ccc(CC(CC(=O)O)C(=O)NCC23CC4CC(CC(C4)C2)C3)cc1 (stereo unspecified)	1.7%	13.1	0.8	0.8	-4.9	0.1

(more compounds)
SMILES	PINK1 modulator	TRPML1 inh	D2 agonist	Six1-Eya2 blk	D2 PAM	TRPML1 agonist
COc1ccc(C(CC(=O)O)NS(=O)(=O)c2ccc(C)cc2)cc1OC (stereo unspecified)	0.2%	-11.0	-2.4	-3.0	-4.5	-0.9
O=C(O)c1ccc(S(=O)(=O)Cc2ccccc2)cc1	2.4%[38.3 µM]	9.3	-1.6	0.3	-2.4	-0.7
CC(C)(CNC(=O)C1c2ccccc2-c2ccccc21)N1CCOCC1	-0.3%	3.4	-0.5	6.2	-4.4	-0.3
COc1ccc(F)cc1C(=O)C1CCCN(Cc2ccc(Oc3ncccn3)cc2)C1 (stereo unspecified)	0.3%	-7.6	-4.2	7.2	-19.9	0.2
COc1ccc(NC(=O)CN2CCOCC2)cc1S(=O)(=O)N1CCCCC1	1.7%	6.2	-7.4	-2.4	-25.8	-0.7
CCOC(=O)CN1C(=O)C(CC)Oc2ccccc21 (stereo unspecified)	2.5%[38.3 µM]	1.3	-2.4	3.8	-1.4	3.1
COc1ccc(NC(=O)C#Cc2ccccc2)cc1	-2.3%	1.6	-2.4	1.9	-31.5	-1.3
COc1ccc(N2CCN(C(=O)c3ccc(NS(=O)(=O)c4ccccc4)cc3)CC2)cc1	5.6%	3.8	6.0	-14.7	-7.7	0.0
CN(CC(=O)Nc1ccc(Cl)cc1)Cc1cc(=O)n2ccsc2n1	-1.9%	4.8	-0.7	-12.1	-2.0	4.2
Nc1nc2ccccc2cc1C(=O)NCc1ccc(Cl)cc1Cl	3.6%	·	·	-3.8	·	-0.8
COc1ccc(N(CC(=O)Nc2cc(C)cc(C)c2)S(=O)(=O)c2ccccc2[N+](=O)[O-])c(OC)c1	2.2%	-3.6	0.8	-9.6	-3.9	0.2
CC(=O)Nc1cc(-c2cccc(C(=O)N(C)C)c2)cn2c(-c3ccc(F)cc3)cnc12	5.3%	-3.5	-1.4	-1.6	-3.6	1.3

Profiles as entered above. Order of values: PINK1 modulator, TRPML1 inh, D2 agonist, Six1-Eya2 blk, D2 PAM, TRPML1 agonist
`COc1ccc(NC(=O)C#Cc2ccccc2)cc1` is entered as -2.3%, 1.6, -2.4, 1.9, -31.5, -1.3
`COc1ccc(NC(=O)CN2CCOCC2)cc1S(=O)(=O)N1CCCCC1` is entered as 1.7%, 6.2, -7.4, -2.4, -25.8, -0.7
`CCOC(=O)CN1C(=O)C(CC)Oc2ccccc21` (stereo unspecified) is entered as 2.5%[38.3 µM], 1.3, -2.4, 3.8, -1.4, 3.1

High-throughput results as filed in PubChem BioAssay.
